Screening results as filed in PubChem.
Rango-impB inh = inhibitors of Rango-importin beta complex formation; Q14974; Rango CFP/YFP FRET sensor + importin beta, 45 min; Potency, µM (highest dose often 92.2 µM), for the others: at the top dose inhibition of complex formation; hit rate 0.031% among 340,000; active = rising FRET ratio curve, often small or poorly fitted; inconclusive = mostly compound fluorescence or quenching in the first reads; inactive = flat curves in all reads;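 note: potency is the fitted concentration of half-maximal effect; 0% = DMSO wells and 100% = buffer wells lacking importin beta; nearly all actives have a fitted effect of over 15% in size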
Target sequence (Q14974 whole entry, looked up): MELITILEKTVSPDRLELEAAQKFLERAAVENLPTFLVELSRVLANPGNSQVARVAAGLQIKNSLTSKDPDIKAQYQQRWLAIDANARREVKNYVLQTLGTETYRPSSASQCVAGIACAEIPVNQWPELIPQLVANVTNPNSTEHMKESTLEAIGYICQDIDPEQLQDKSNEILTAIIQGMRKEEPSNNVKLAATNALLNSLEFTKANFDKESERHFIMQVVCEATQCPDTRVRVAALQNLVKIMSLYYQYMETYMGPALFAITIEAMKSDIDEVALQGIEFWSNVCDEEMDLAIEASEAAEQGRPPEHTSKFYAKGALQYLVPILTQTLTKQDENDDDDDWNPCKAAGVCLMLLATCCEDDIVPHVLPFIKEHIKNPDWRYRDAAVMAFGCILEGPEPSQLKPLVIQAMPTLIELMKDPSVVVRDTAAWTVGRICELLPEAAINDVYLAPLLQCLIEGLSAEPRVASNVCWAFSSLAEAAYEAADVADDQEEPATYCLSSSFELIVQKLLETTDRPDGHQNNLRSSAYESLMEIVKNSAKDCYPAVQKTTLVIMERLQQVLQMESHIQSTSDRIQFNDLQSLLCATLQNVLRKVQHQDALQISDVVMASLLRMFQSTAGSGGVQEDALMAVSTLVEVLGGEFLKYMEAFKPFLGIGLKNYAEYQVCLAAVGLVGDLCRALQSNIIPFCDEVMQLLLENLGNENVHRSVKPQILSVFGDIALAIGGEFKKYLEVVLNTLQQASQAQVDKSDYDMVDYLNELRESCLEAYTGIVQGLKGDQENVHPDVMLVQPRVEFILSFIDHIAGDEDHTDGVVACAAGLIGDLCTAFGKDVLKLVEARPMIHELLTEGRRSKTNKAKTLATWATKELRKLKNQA
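FRET biosensor Rango (snurportin 1 IBB between N-terminal EYFP and C-terminal Cerulean), 50 nM in PBS/1 mM DTT/0.02% Tween-20/0.1% BSA, preincubated 5 min RT with compound; 0.125 microM importin beta added, 45 min RT, CFP/YFP FRET ratio read.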
Rango dissoc inh = inhibitors of RanGTP-induced Rango-importin beta complex dissociation; Biochemical FRET Rango-importin beta, RanGTP-induced dissociation; Potency, µM (highest dose often 46.1 µM), for the others: top-dose activity change, negative = inhibition; hit rate 0.071% among 340,000; active means falling FRET ratio curve, often poorly fitted, with flat reads before Ran was added; inconclusive means other falling curves, or compound fluorescence or quenching; inactive means flat or rising ratio curve;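 note: potency is the fitted concentration of half-maximal effect; % of control where 0% means no effect; nearly all actives have a fitted effect of over 45% in size; -100% = wells without RanGTP and RCC1; the record marks most hits as doubtful in a second field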
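Compounds sat 5 min at room temperature with 0.1 uM Rango biosensor plus 0.25 uM importin beta, then FRET pre-read. RanGTP-RCC1 (0.6 uM Ran, 2mM GTP, 0.2 uM RCC1) added for 45 min, and the CFP/YFP post-read measured blocked complex dissociation.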
miR-21 FLuc = miR-21 reporter, rising signal; HeLa miR-21 FLuc reporter, luciferase, 48 h; Potency, µM (series often up to 38.3 µM), inactives show top-dose reporter change, positive = more light; 340,000 tested, under 10 active; active = well fitted rising curve with a large enough effect; inconclusive = small, poorly fitted or top-dose-only effect; inactive = no such curve, though single readings can be large or run the other way;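 note: % of control where 0% means no effect; miR-21 action dims this reporter so a rising signal means less miR-21 action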
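Using DMEM plus 10% FBS, HeLa miR-21-FLuc cells are incubated with test compounds (final up to about 40uM) for 48 hours; firefly luciferase signal is then imaged following reagent-mediated lysis.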
GLA inh pH 4.5 = blocks human alpha-galactosidase A at pH 4.5; P06280; purified enzyme, 4-MU-alpha-Gal fluorescence, pH 4.5; 230,000 tested, under 10 active; activity change, negative = inhibition, % at 105 µM; inconclusive = small, poorly fitted or top-dose-only inhibition, or a rising curve; inactive = flat fitted curve, though single readings scatter; no compound was filed as active;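 note: 0% = full activity with enzyme and -100% = basal without enzyme; dose as in the result columns while the protocol names 77 µM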
Numbers without * were called inactive; ? = inconclusive; . = no result given; & = joins results of further samples; [ ] = remark or other dose. Not all compounds are listed (hit frequency here may not be typical).

Rango-impB inh	Rango dissoc inh	miR-21 FLuc	GLA inh pH 4.5	molecule
0.1%	-3%	-6%	.	COc1ccccc1CN1CC(C(=O)NCc2ncccc2C)CCC1=O (stereo unspecified)
-0.7%	2%	-4%	14	COc1ccc2c(c1)c1ncn(CCc3ccccc3)c(=O)c1n2C
1.4%	1%	-6%	-1	COc1ccc(NC(=S)NCCN2CCC(C)CC2)cc1Cl
0.3%	20%	-8%	2	COc1cc2c(cc1OC)CN(C(=O)c1ccc(OC)c([N+](=O)[O-])c1)CC2
-0.8%	7%	1%	.	Cc1oc2cc3oc(=O)c(CC(=O)NCCCC(=O)O)c(C)c3cc2c1C
-2.1%	0%	?	-3	OC(COCCOc1ccc(Br)cc1)CN1CCN(Cc2ccccc2)CC1 (stereo unspecified)
-1.8%	1%	3%	.	COCCC1CCCCN1C(=O)c1cc(COc2ccc(C)nc2)on1 (stereo unspecified)
3.4%	-3%	-45%	3	CSc1nc(-c2ccccc2)cn1-c1ccc(NC(C)=O)cc1
-1.5%	-4%	.	.	C[C@H]1CN([C@@H](C)CO)C(=O)c2cc(NS(=O)(=O)c3ccc(F)cc3)ccc2O[C@H]1CN(C)S(=O)(=O)c1cn(C)cn1
-3.1%	-15%	0%	-11	O=C(O)C1CCCN1S(=O)(=O)c1ccccc1 (stereo unspecified)
-10%	1%	-7%	-4	Cc1cc(NC(=O)CSc2nc3c(c(-c4cccnc4)c2C#N)CCC3)no1
0.2%	-8%	-20%	-11	O=[N+]([O-])c1ccc(N2CCCCC2)cc1
-1.6%	-4%	-2%	1	CCc1cc2c(C)cc(C)cc2nc1SCC(=O)Nc1cc(C)on1
2.4%	-15%	-36%	-5	S=c1[nH]nc(CSCCOc2ccc(Cl)cc2Cl)o1
2.1%	3%	-3%	.	CSCC[C@H](NS(=O)(=O)c1ccc(C)cc1)C(=O)N1CCC(C(=O)N[C@@H](Cc2ccccc2)C(=O)O)CC1
1.5%	2%	-4%	-23	CCOC(=O)c1ccccc1NC(=O)CSc1nc(N)cc(=O)[nH]1
0.3%	?	0%	.	Cc1nn(CC(=O)Nc2ccc(Cl)cc2)c(=O)c2cc(-c3ccccc3)nn12
?	?	-30%	-3	CC(C)N(C(=O)Nc1ccc2nccnc2c1)C(C)C
2.6%	0%	18%	.	CCCc1cc(C(=O)Nc2cccc3ccccc23)n(C)n1
3.5%	-11%	-6%	-3	Cc1cnc2cc(Cl)c(Cl)cc2n1

Sorted by number of heavy atoms (lowest first): three of the compounds above
Rango-impB inh	Rango dissoc inh	miR-21 FLuc	GLA inh pH 4.5	molecule
0.2%	-8%	-20%	-11	O=[N+]([O-])c1ccc(N2CCCCC2)cc1
0.1%	-3%	-6%	.	COc1ccccc1CN1CC(C(=O)NCc2ncccc2C)CCC1=O (stereo unspecified)
-2.1%	0%	?	-3	OC(COCCOc1ccc(Br)cc1)CN1CCN(Cc2ccccc2)CC1 (stereo unspecified)

Continued:
Rango-impB inh	Rango dissoc inh	miR-21 FLuc	GLA inh pH 4.5	molecule
0.0%	-3%	-2%	-3	CCCCNC(=O)[C@H](CSCc1ccccc1)N1Cc2ccccc2C1=O
-4.5%	-9%	.	.	c1ccc(CCCCc2ccncc2)cc1
2.9%	-2%	-22%	-6	O=C(Nc1cc2c(oc1=O)CCCC2=O)c1cccc(Cl)c1
-0.4%	2%	-4%	-22	Cc1ccccc1OC/C(O)=C(\C#N)c1nc2ccccc2[nH]1
0.1%	-6%	0%	0	CCOC(=O)N1CCN(C(=O)C2CCCN(c3nc4ccc(OCC)cc4s3)C2)CC1 (stereo unspecified)
1.9%	2%	15%	2	Cn1nc(CC(=O)Nc2ccc3c(c2)OCCO3)c2ccccc2c1=O
-0.8%	11%	0%	4	COc1cc(C(=O)N(Cc2ccco2)Cc2cc3ccccc3[nH]c2=O)cc(OC)c1OC
0.6%	21%	1%	11	CN(C)CCNC(=O)c1ccc(CS(=O)(=O)c2c(Cl)cccc2Cl)o1
-1.3%	18%	-3%	2	COc1ccc(CCNC(=O)c2c(-c3ccccc3)noc2C)cc1OC
-3.5%	-10%	-25%	2	Cc1ccc(C)c(Cn2nnc3c(=O)[nH]c(C(=O)NCC4CCCO4)nc32)c1 (stereo unspecified)
0.9%	0%	-8%	3	O=S(=O)(c1ccc2ccccc2c1)N1CCCOC1
3.2%	-3%	.	.	CC[C@H](C)[C@@H]1NC(=O)[C@H]([C@@H](C)CC)NC(=O)[C@@H](CC(C)C)NC(=O)[C@H](Cc2ccccc2)NC(=O)[C@H](Cc2ccccc2)NC(=O)[C@@H]2CCCN2C(=O)[C@@H]2CCCN2C(=O)[C@H](C(C)C)NC(=O)[C@H](CC(C)C)NC1=O
-1.6%	-10%	-13%	5	CCOc1ccc(CNc2ccc(S(N)(=O)=O)cc2)cc1
-2.2%	-15%	5%	-6	CCOc1ccc(Nc2ncnc3c2cnn3Cc2ccccc2)cc1
-0.5%	-8%	-3%	-11	Cc1ccc(N2C(=O)C(c3c(C)[nH]n(-c4ccccc4)c3=O)(C(F)(F)F)C3=C2CC(C)(C)CC3=O)cc1 (stereo unspecified)
0.0%	1%	-22%	5	CC1(C)Cc2c(sc3nc(SCC(=O)N4CCOCC4)nc(N)c23)CO1
0.4%	1%	-1%	14	CC(Oc1ccccc1)C(=O)NC1C(=O)N2C1SC(C)(C)C2C(=O)O (stereo unspecified)
1.4%	7%	-5%	5	Cc1ccc(N2C(=O)/C(=C/c3cccnc3)SC2=S)cc1
3.4%	-5%	.	.	CC1(c2ccc3c(c2)OCCCO3)NC(=O)N(CC(=O)NCCc2ccccc2)C1=O (stereo unspecified)
0.3%	-6%	.	.	CN1C[C@H]2CON(C)[C@H]2C[C@H]1c1cccc(N2CCOCC2)c1
-0.6%	-2%	.	.	COc1ccc(OCC(=O)Nc2ccc3c(c2)CCC3)cc1
0.5%	1%	-41%	.	CC(=O)Oc1cccc(Nc2ncnc3ccccc23)c1
?	?	0%	7&8	Oc1cc(O)c2c(c1)O[C@H](c1ccc(O)c(O)c1)[C@H](O)C2
0.0%	-9%	-7%	-1	C/C(=N\Nc1nc(N2CCOCC2)nc(N2CCOCC2)n1)c1cccs1
-2.2%	-10%	-17%	-19	CCCc1nc2n[nH]c(N)c2c2c1COC(C)(C)C2
-4.6%	3%	-18%	5	CC(C)c1onc(C(=O)Nc2cccc(O)c2)c1[N+](=O)[O-]
0.4%	-10%	3%	9	COc1ccc(S(=O)(=O)N(CCc2ccccc2)CC(=O)N/N=C/c2ccc3c(c2)OCO3)cc1
-1.9%	4%	-2%	-6	O=C(NC12CC3CC(CC(C3)C1)C2)N1CCN(S(=O)(=O)c2ccc(Cl)cc2)CC1
0.3%	-2%	-9%	0	COc1ccc(CCC(C)NC2C3CC4CC(C3)CC2C4)cc1 (stereo unspecified)
0.4%	-18%	.	.	CN(C(=O)c1ccc(NC(=O)Cc2ccc(NC(=O)C3CCN(C(=O)C4CC4)CC3)cc2)cc1)C1CC1
1.4%	-8%	1%	-2	CCc1ccc(NC(=O)CCn2ccnc2C)cc1
-0.3%	2%	-9%	-8	Cc1ccc(CNC(=O)Cc2nc3nc(C)cc(C)n3n2)cc1
5.9%	2%	-1%	.	COc1ccc(CNC(=O)c2cc(C(C)=O)c[nH]2)cc1
0.1%	9%	.	.	O=C(OCc1ccccc1)N1CCC2CC1c1cc(-c3ccc4c(c3)OCO4)ccc12 (stereo unspecified)
8.4%	-7%	.	.	CN(Cc1ccco1)C(=O)CN1C(=O)NC2(CCCC2)C1=O
-2.5%	0%	-11%	.	CC(=O)Oc1ccc(C(=O)Nc2ccccc2NC(=O)c2ccc(OC(C)=O)cc2)cc1
0.6%	-11%	-1%	-9	COc1ccc(CC2(CO)CCN(C(C)COc3ccccc3)CC2)cc1 (stereo unspecified)
1.4%	-2%	.	.	CS(=O)(=O)c1ccc(-c2sc3ccccc3c2C#CCCO)cc1
3.4%	1%	2%	0	O=C(/C=C/Nc1ccc(F)cc1F)c1ccco1
-2.8%	-16%	-5%	-7	COc1ccc(C(=O)NC(=S)N2CC(C)OC(C)C2)cc1 (stereo unspecified)
3.5%	1%	5%	1	CCN(CC(=O)NCc1ccc(F)cc1)CC(=O)Nc1ccccc1-c1ccccc1
-3.9%	1%	-11%	4	CCCc1cc(C(=O)Nc2ccc(C(C)=O)cc2)no1
3.0%	3%	-7%	.	CSc1ncccc1C(=O)NC1CCCc2c1cnn2-c1ccc(C)c(C)c1 (stereo unspecified)
-2.8%	-6%	17%	-10	COc1ccccc1C1CCN(C(=O)c2cnn(-c3ccccc3)c2C)CC1
-0.8%	-10%	-3%	8	O=S(=O)(c1ccccc1)c1nc(-c2ccco2)oc1NCCCn1ccnc1
3.5%	3%	.	.	Cc1ccc(NS(=O)(=O)c2ccc(Cl)c(N=Nc3c(O)[nH]c(=O)[nH]c3=O)c2)cc1Cl
1.1%	-1%	1%	8	CSc1oc(-c2ccccc2)nc1C(N)=O
4.8%	?	.	.	O=C(NC1CC1)c1cccc(NC(=O)c2cc(S(=O)(=O)N3CCOCC3)ccc2Cl)c1
1.4%	-13%	-38%	4	Cc1ccc(C(=O)Nc2cccc(C(=O)N3CCOCC3)c2)cc1
?	-2%	.	.	COc1ccc(S(=O)(=O)Nc2ccc3c(c2)C(=O)N([C@H](C)CO)C[C@H](C)[C@@H](CN(C)C(=O)NC2CCCCC2)O3)cc1

Pulled by compound from the list above (3):
Rango-impB inh	Rango dissoc inh	miR-21 FLuc	GLA inh pH 4.5	molecule
-0.8%	-10%	-3%	8	O=S(=O)(c1ccccc1)c1nc(-c2ccco2)oc1NCCCn1ccnc1
-2.8%	-6%	17%	-10	COc1ccccc1C1CCN(C(=O)c2cnn(-c3ccccc3)c2C)CC1
4.8%	?	.	.	O=C(NC1CC1)c1cccc(NC(=O)c2cc(S(=O)(=O)N3CCOCC3)ccc2Cl)c1

(list continues)
Rango-impB inh	Rango dissoc inh	miR-21 FLuc	GLA inh pH 4.5	molecule
6.9%	-1%	0%	-11	CCN(CC)C(=O)CCS(=O)(=O)c1cccc2nonc12
-6.7%	19%	.	.	CCN(C(=O)CSc1nccc(=O)[nH]1)C1CCCCC1
1.2%	?	-1%	.	CN1CCCC(OC(=O)c2cc(F)c(F)c(F)c2F)C1 (stereo unspecified)
0.1%	9%	0%	6	O=C(O)c1cc([N+](=O)[O-])ccc1C(=O)Nc1ccccc1
2.9%	25%	-1%	.	O=C(CN(Cc1ccc(F)cc1)C(=O)CCC(=O)Nc1nccs1)NCc1ccccc1
-3.5%	45%	-61%	.	Cc1ccccc1OCc1nc2ccccc2n1C
5.1%	-7%	3%	.	O=C(c1cccc(S(=O)(=O)N2CCCCC2)c1)N1CCN(c2ccccc2)CC1
-2.1%	0%	-3%	.	CCCn1c(N)c(N(CCOC)C(=O)c2cc(S(=O)(=O)N3CCCCCC3)ccc2OC)c(=O)[nH]c1=O
0.2%	9%	1%	-4	CCN(CC)CCCNC(=O)CNC(=O)c1nn(-c2ccc(OC)cc2)c(=O)c2ccccc12
-0.5%	9%	.	.	COC(=O)c1sccc1NC(=O)c1ccccc1C(=O)O
-6.3%	-13%	-6%	-2	O=C(Nc1ccccc1)c1ccc(S(=O)(=O)NCC2CCCO2)cc1 (stereo unspecified)
-1.4%	1%	.	.	CC(C)(C)OC(=O)N(CCc1ccccc1)Cc1ccc(OCc2cccc(NC(=O)C3CCCC3)c2)cc1
5.9%	1%	7%	8	COC(=O)c1cc2occc2n1CC(=O)Nc1ccc(C)cc1C
-0.8%	-5%	-1%	-1[21.1 µM]	COc1ccc(S(=O)(=O)N/N=c2\oc3c(OC)cccc3cc2S(=O)(=O)c2ccc(C)cc2)cc1OC
-0.5%	-3%	-18%	-26	O=C(Cc1ccc(Br)cc1)N1CCN(c2ccccc2)CC1
0.0%	1%	0%	.	COC(=O)/C=C1\SC(=NC(=O)c2ccc(OC)cc2)NC1=O
0.3%	-6%	0%	0	O=C(Nc1cc(S(=O)(=O)Nc2ccccc2Cl)ccc1O)c1sc2cc(Cl)ccc2c1Cl
